# Source: PubChem (National Center for Advancing Translational Sciences (NCATS))
# Menin-MLL FL inh: displaces fluorescein MLL peptide from human menin | Fluorescence polarization, fluorescein-MLL peptide displacement from menin | FP activity change, % at 61.4 µM | 290,000 tested, under 10 active; inconclusive = falling polarisation curve, or a change in total fluorescence; inactive = total fluorescence flat and polarisation flat or rising; no compound was filed as active; the % refers to the polarisation; negative = inhibition;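 note: % of control where 0% means no effect; inhibitors lower the polarisation; unlabelled MLL peptide was the positive control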
# ClpP mod: qHTS Assay for Activators of ClpP; purified B. subtilis ClpP, FRET peptide cleavage, 20 min; 340,000 compounds, 1.9% hits; ATP-dependent Clp protease proteolytic subunit (Bacillus subtilis (strain 168)), P80244; Potency, µM (doses to about 57.5 µM), for the others: at the top dose activity change, negative = active; AID 651965, 2013; active = well fitted falling curve with a large enough effect; inconclusive = small, poorly fitted or top-dose-only effect; inactive = no such curve, though single readings can be large or run the other way; note: potency is the fitted concentration of half-maximal effect; the source files actives as falling curves though it sought activators and does not explain the sign; nearly all actives have a fitted effect of over 65% in size; many hits overshoot -100%
# Target sequence (P80244 whole entry, looked up): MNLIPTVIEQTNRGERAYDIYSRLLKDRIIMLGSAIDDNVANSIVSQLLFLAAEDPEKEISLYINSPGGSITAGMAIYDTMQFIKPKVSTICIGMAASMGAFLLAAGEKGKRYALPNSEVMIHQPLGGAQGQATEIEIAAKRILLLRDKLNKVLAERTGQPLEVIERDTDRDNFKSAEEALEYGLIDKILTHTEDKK
#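 Purified B. subtilis ClpP, 10 microg/mL final in Tris/HCl pH8 with KCl, BSA, glycerol and Tween-20, cleaved an Abz/nitrotyrosine-quenched decapeptide. Fluorescence (ex 320, em 430) was read at 0 and 20 min at room temperature. Delta was normalized to 5.8 microM ADEP and DMSO/no-enzyme controls.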
# CtBP-E1A blk: inhibitors of CtBP/E1A interaction. 340,000 compounds, 0.49% hits. activity change, % (concentration not given with the values). AlphaScreen GST-E1A/His-CtBP binding, 1536-well; active compounds read low; control for the full effect not named in the record; in the data active means activity change below about -65%; inconclusive means about -30% to -65%; inactive means above about -30%; note: % is set by controls: 0 for no effect and ±100 for the full control effect
#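 Protein mix (5X: 125 nM each GST-E1A, His-CtBP) was incubated with pinned compound 2 h at 37 deg C in dark, in 50 mM Tris pH 8.0 buffer with 300 mM NaCl. Glutathione donor and nickel acceptor beads followed; AlphaScreen signal read after 1 h.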
# Sfp inh: inhibitors of Bacillus subtilis Sfp phosphopantetheinyl transferase; 310,000 compounds, 3.5% hits; Potency, µM, inactives show max response, negative = inhibition, usual class: inhibitors; Biochemical Sfp PPTase activity, qHTS; Q9F4F7; active = well fitted inhibition curve with a large enough effect; inconclusive = small, poorly fitted or top-dose-only effect, or another doubt; inactive = no such curve, though single readings can be large or run the other way;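 note: the enzyme is Sfp with the accession as filed and its product quenches rhodamine fluorescence; potency is the fitted concentration of half-maximal effect; 0% = enzyme reaction without inhibitor and -100% = no enzyme wells; top concentration of the series not given in the record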
#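 Step 1, compound plus 15 nM Sfp-PPTase, 15 min, room temperature. Step 2, add rhodamine-CoA (5 uM) and BHQ-2-YbbR (12.5 uM). Step 3, read 525/598 nm fluorescence at 0 and 30 min.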
# gsp agonist: gsp mutant agonism | gsp mutant cells, cAMP HTRF, 30 min; control for the full effect not named in the record | Potency, µM (highest dose often 76.9 µM), inactives show at the top dose activation (cAMP increase), hits mostly activators | 340,000 compounds, 0.13% hits; active = well fitted activation curve with a large enough effect; inconclusive = small, poorly fitted or top-dose-only effect, or another doubt; inactive = no such curve, though single readings can be large or run the other way; cell line not stated here;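 note: phosphodiesterase inhibitor Ro 20-1724 added with compounds to block cAMP breakdown; potency is the fitted concentration of half-maximal effect; nearly all actives have a fitted effect of over 60% in size; about a fifth of the inactives were tested at one dose only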
#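 Cells stably selected in G418 were plated at 2000/well, grown 16-24 hr, then given compounds in DMSO with the PDE inhibitor […] (300 uM solution added) for 30 min at 37C; cAMP was read by HTRF.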
# gsp antagonist: gsp mutant antagonism; gsp-mutant cells, cAMP HTRF, 30 min; control for the full effect not named in the record; Potency, µM (top dose mostly 76.9 µM), without a hit: at the highest dose activity change, negative = inhibition, usual class: inhibitors; 340,000 compounds, 0.4% hits; active = falling curve of any shape with a large fitted effect; inconclusive = falling curve, mostly with a smaller effect; inactive = flat or rising curve; cell line not stated here;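 note: intracellular cAMP measured with PDE inhibitor Ro 20-1724 present during compound exposure; potency is the fitted concentration of half-maximal effect; % is set by controls: 0 for no effect and ±100 for the full control effect; nearly all actives have a fitted effect of over 65% in size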
#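 Cells, 2000/well, grown 16–24 h in DMEM 10% FBS with 0.5 mg/ml G418, then compounds plus […] (300 uM addition stock), 30 min at 37C. cAMP read by HTRF (cAMP-d2 and anti-cAMP antibody-K in lysis buffer) after 30 min RT.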
# TRPV1 PAM: potentiators of human vanilloid receptor 1 (TRPV1); Q8NER1; TRPV1-expressing cells, Fluo-8 calcium influx, capsaicin EC20 potentiation; host cell line not named in the record; control for the full effect not named in the record; potentiation, % at 8.33 µM; 320,000 compounds, 0.02% hits; AID 540277; active means potentiation above 80%; inconclusive means 30% to 80%; inactive means below 30%; note: 0% is about no effect
# Target sequence (Q8NER1 whole entry, looked up): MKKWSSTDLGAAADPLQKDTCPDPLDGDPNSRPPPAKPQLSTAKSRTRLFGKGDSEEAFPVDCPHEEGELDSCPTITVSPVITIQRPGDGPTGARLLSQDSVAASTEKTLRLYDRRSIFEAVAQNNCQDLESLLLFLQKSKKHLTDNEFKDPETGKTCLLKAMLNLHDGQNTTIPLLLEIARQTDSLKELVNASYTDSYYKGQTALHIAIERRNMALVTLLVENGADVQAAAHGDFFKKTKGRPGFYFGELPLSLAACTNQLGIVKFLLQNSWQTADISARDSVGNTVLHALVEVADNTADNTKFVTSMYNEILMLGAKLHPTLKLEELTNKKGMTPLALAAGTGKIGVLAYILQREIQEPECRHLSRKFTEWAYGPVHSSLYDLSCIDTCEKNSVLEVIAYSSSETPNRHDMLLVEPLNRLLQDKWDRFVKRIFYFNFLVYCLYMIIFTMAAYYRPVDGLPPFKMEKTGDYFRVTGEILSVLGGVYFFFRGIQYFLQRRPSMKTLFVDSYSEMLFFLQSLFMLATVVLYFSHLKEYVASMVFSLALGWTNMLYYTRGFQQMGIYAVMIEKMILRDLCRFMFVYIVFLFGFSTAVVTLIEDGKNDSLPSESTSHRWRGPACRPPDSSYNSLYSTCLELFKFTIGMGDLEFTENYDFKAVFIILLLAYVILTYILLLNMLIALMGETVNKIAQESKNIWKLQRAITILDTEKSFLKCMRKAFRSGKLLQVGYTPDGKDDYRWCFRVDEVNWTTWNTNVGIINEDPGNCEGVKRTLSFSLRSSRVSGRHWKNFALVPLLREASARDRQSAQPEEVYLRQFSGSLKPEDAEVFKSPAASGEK
#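 TRPV1-expressing cells were cultured overnight at 35.5C and loaded with Fluo-8 calcium dye for 40 to 90 min at room temperature. After a 10 s baseline, compound was added and calcium influx was read kinetically for 3 min (ex 480/em 520 nm).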
# * = called active by the depositor; ? = inconclusive; . = no result given; [ ] = dose if it differs, or a comment.
SMILES,Menin-MLL FL inh,ClpP mod,CtBP-E1A blk,Sfp inh,gsp agonist,gsp antagonist,TRPV1 PAM
O=C(NCCN1CCNC1=O)C1CCC(=O)N(CCc2ccc(Cl)cc2)C1 (configuration not stated),1.1,0.6%,2,14%,-7%,-15%,11
Cc1[nH]n(-c2ccc(F)cc2)c(=O)c1C=Nc1ccc(S(=O)(=O)N(C)C)cc1,2.5,1.1%,-5,?,-10%,-16%,0
CC(=O)c1ccc(N2CCN(S(=O)(=O)c3ccc4c(c3)CC(C)N4C(=O)C3CC3)CC2)cc1 (configuration not stated),.,-23%,1,-3%,1%,23%,24
Cc1cccc(C)c1OCC(O)CNC(C)(C)C (configuration not stated),0.1,-1.3%,-3,24%,-5%,0%,14
CC1=CC(=O)Nc2ccccc2S1,.,-25%,0,.,-53%[inhibitor],-5%,.
COc1ccc(C)cc1N(CC(N)=O)S(=O)(=O)c1ccc(C)cc1,1.5,1.8%,-17,-4%,-2%,0%,-2
COc1cc(/C=N/NC(=O)NC23CC4CC(CC(C4)C2)C3)ccc1O,-0.1,-2.7%,6,-13%,36%[15.4 µM],-11%,26
Cc1ccc2nc(SCC(=O)Nc3ncccn3)[nH]c2c1,2.6,-0.3%,-8,-5%,12%,3%,11
CCCN(CCC)CCNC(=O)c1cc2c(=O)n(CC)c3ccccc3c2s1,3.1,.,5,19%,23%[15.4 µM],8%,-5
CC(C)c1nc2c(c(=O)c3ccccc3n2C)c(=O)n1CCc1ccccc1,3.0,.,-1,17%,-1%[15.4 µM],-21%,.
CC1(C)C(=O)OC(c2cccn2-c2cccc([N+](=O)[O-])c2)C2(CCCCC2)C1=O (configuration not stated),3.0,.,.,6%,.,.,-5
COc1ccc(N2CCN(C(=O)CCNS(=O)(=O)c3ccc(Br)s3)CC2)cc1,-1.7,-2.3%,-2,6%,-25%,-6%,-20
O=C(NCc1ccccc1)C(=O)Nc1cccc(C(=O)O)c1,5.3,-2.4%,2,5%,?,6%,.
CCOC(=O)C1C(C(=O)OC)=C(c2ccc(F)cc2)c2ccccc2N1S(=O)(=O)C(F)(F)F (configuration not stated),0.8,-11%,-1,-3%,.,-12%,.
COc1ccc2[nH]c3ccccc3c2c1,1.4,?,-6,-7%,-1%,1%,-2
O=C(Oc1cc(Cl)ccc1Cl)c1ccc(N2CCOCC2)c([N+](=O)[O-])c1,.,5.2%,-5,-3%,-2%,7%,-2
CSC(=O)NC(=O)NC(=O)c1ccc([N+](=O)[O-])cc1,4.0,0.0%,.,11%,-22%,1%,-26
C=CCN1C(=O)C2C(C(=O)NC3CCCC3)C3(C)C=CC2(O3)C1C(=O)NC1CCCC1 (configuration not stated),0.3,-2.0%,-10,11%,-7%[15.4 µM],10%,6
O=C(O)CCc1ccc(-c2ccccc2)n1NC(=O)c1sc2ccccc2c1Cl,1.5,-1.6%,?,-3%,-50%[inhibitor],-25%,13
CCOC(=O)c1cccc(NC(=O)COc2nsnc2N2CCOCC2)c1,-7.5,.,13,5%,-1%[15.4 µM],-14%,24

# Sorted by value in gsp antagonist (highest first): some entries from above
molecule,gsp antagonist
CCCN(CCC)CCNC(=O)c1cc2c(=O)n(CC)c3ccccc3c2s1,8%
Cc1cccc(C)c1OCC(O)CNC(C)(C)C (configuration not stated),0%
CCOC(=O)c1cccc(NC(=O)COc2nsnc2N2CCOCC2)c1,-14%

# One compound at a time, from the list above. Screens in order: Menin-MLL FL inh	ClpP mod	CtBP-E1A blk	Sfp inh	gsp agonist	gsp antagonist	TRPV1 PAM
# O=C(NCc1ccccc1)C(=O)Nc1cccc(C(=O)O)c1 as listed: 5.3	-2.4%	2	5%	?	6%	.
# Cc1[nH]n(-c2ccc(F)cc2)c(=O)c1C=Nc1ccc(S(=O)(=O)N(C)C)cc1 as listed: 2.5	1.1%	-5	?	-10%	-16%	0
# COc1ccc2[nH]c3ccccc3c2c1 as listed: 1.4	?	-6	-7%	-1%	1%	-2
# Cc1ccc2nc(SCC(=O)Nc3ncccn3)[nH]c2c1 as listed: 2.6	-0.3%	-8	-5%	12%	3%	11
# O=C(Oc1cc(Cl)ccc1Cl)c1ccc(N2CCOCC2)c([N+](=O)[O-])c1 as listed: .	5.2%	-5	-3%	-2%	7%	-2

# (more compounds)
SMILES,Menin-MLL FL inh,ClpP mod,CtBP-E1A blk,Sfp inh,gsp agonist,gsp antagonist,TRPV1 PAM
CCSc1nnc(N2C(=O)C(O)=C(C(=O)c3ccco3)C2c2cccc(OC)c2)s1 (configuration not stated),.,-0.2%,0,?,?,-9%,17
O=C(CSCc1c(F)cccc1Cl)NCc1cccnc1,0.8,-1.3%,-4,-10%,-45%[inhibitor],18%,3
COc1cc(C(=O)Nc2nnc(Cc3ccccc3)s2)cc(OC)c1OC,3.2,.,-8,-1%,5%[15.4 µM],-9%,1
CC(=O)N1c2ccc(S(=O)(=O)N3CCCC3)cc2CC1C(=O)NCc1ccc(OC(C)C)cc1 (configuration not stated),.,1.0%,3,5%,30%,-12%,9
CC1CCCCN1CC(=O)Nc1ccc2c(c1)OC(F)(F)O2 (configuration not stated),-1.0,.,-5,19%,-11%,10%,-9
O=C(Cn1nc(C(F)(F)F)c2c1CCCCC2)N1CCOCC1,4.1,1.1%,2,16%,-7%,7%,3
COc1ccc(-c2nn(CCC(=O)O)cc2/C=C2\SC(N)=NC2=O)cc1OC,?,-0.3%,-2,-22%,-14%,-12%,-1
Cc1cc2ncn(C3CC(O)C(CO)O3)c2cc1C (configuration not stated),.,.,5,.,0%,15%,.
O=S(=O)(c1cccc(-c2n[nH]c(=S)n2-c2ccc(OC(F)(F)F)cc2)c1)N1CCOCC1,.,0.8%,5,.,?,?,.
CCOC(=O)c1cn(Cc2ccccc2)c2cc(C)nn2c1=O,1.0,-0.1%,3,18%,15%[15.4 µM],-10%,-8
CN(CC(=O)Nc1ccccc1C(F)(F)F)C(=O)c1ccc2c(=O)n3c(nc2c1)CCC3,.,-20%,-11,.,1%,10%,8
CCN(CC)Cc1nc2c(c(=O)[nH]1)C(CC)(CC)Cc1ccccc1-2,-3.3,-2.2%,.,3%,0%,2%,-17
CCCC1(c2ccccc2)NC(=O)N(CC(=O)NCC2COc3ccccc3O2)C1=O (configuration not stated),.,-1.1%,4,.,?,-19%,-27
O=C(C1CCCN1C(=O)c1cccs1)N1CCc2ccccc21 (configuration not stated),0.6,-1.2%,0,2%,22%,13%,3
Cc1cc(C)c(C)c(C(=O)CSc2nnc(-c3ccc4[nH]c(C)c(C)c4c3)o2)c1C,1.3,34%,0,0%,?,-17%,25
Cc1ccc(CNC(=O)CN2C(=O)NC(C)(c3ccccc3Cl)C2=O)cc1 (configuration not stated),-3.2,.,2,6%,0%,-1%,8
CC1CC(=O)Nc2ccccc2N1S(=O)(=O)c1ccc(C(F)(F)F)cc1 (configuration not stated),.,-7.5%,3,8%,0%[15.4 µM],-1%,12
CCOC(=O)CCN(Cc1cccs1)S(=O)(=O)c1ccc(F)cc1,7.3,9.0%,16,6%,-6%,10%,-18
Cn1c(CSCc2ccc(Cl)cc2)nnc1SCC(=O)Nc1nc2ccccc2s1,0.0,-7.2%,6,10%,-2%,-4%,10
O=C(CCNc1ccc(Cl)cc1)c1cccs1,4.3,1.5%,-13,7%,8%,11%,-5
N#Cc1ccc(Oc2ccc(S(=O)(=O)N3CCCC3)cn2)cc1,.,.,0,.,9%[15.4 µM],22%,22
[O-]/[N+](=C\c1ccc(OC(F)F)cc1)c1ccccc1,-3.4,0.0%,51,-27%,14%,9%,9
CC1(C)CC(=O)C2=C(C1)NC(=O)CC2c1cc(F)ccc1F (configuration not stated),-2.4,0.2%,3,13%,3%,-3%,1
CC1Cc2ccccc2N1C(=O)C(C)n1cc(C(F)(F)F)cc(Cl)c1=O (configuration not stated),.,-2.3%,-13,.,-29%,-4%,-19
CC(C)NC(=O)C(=O)NCCc1ccc(Cl)cc1,1.3,-4.0%,18,2%,0%,8%,1
c1ccc2nc3c(cc2c1)CCCCCC3,0.7,-0.2%,9,8%,-4%,-29%,2
O=C(/C=C/c1ccc([N+](=O)[O-])cc1)N1CCN(S(=O)(=O)c2ccccc2)CC1,.,-2.2%,-4,.,-19%,-4%,-9
COC(=O)c1cc2oc(C)cc2n1CC(=O)Nc1ccc(C)c(C)c1,7.5,-3.0%,-16,-19%,-20%,2%,24
O=C(Cc1csc(-c2ccccc2)n1)NCc1ccco1,0.2,0.0%,-3,-20%,?,-2%,1
O=C(CN1CCN(Cc2ccccc2F)C1=O)NCC1CCCO1 (configuration not stated),1.4,2.3%,-2,21%,-7%,7%,-8
O=C(Nc1ccc2c(c1)OCCO2)C1CCN(S(=O)(=O)c2cccc3nsnc23)CC1,4.3,-1.5%,1,-12%,12%,-13%,.
Cc1[nH]c2ccc(CNS(=O)(=O)c3ccc(S(=O)(=O)N4CCOCC4)cc3)cc2c1C,0.6,0.3%,11,18%,-31%[inhibitor],-12%,?
CCOc1ccc(/C(CCC(=O)O)=N/NC(=S)NCCc2ccccc2)cc1,-1.3,.,12,0%,0%[15.4 µM],-21%,-6
Cc1ccccc1NC(=O)Nc1c(C)n(C)n(-c2ccccc2)c1=O,.,-0.8%,3,19%,6%[15.4 µM],-4%,6
O=C(c1cccc(F)c1)N1CCN(CC2CC3C=CC2C3)CC1 (configuration not stated),1.4,-1.4%,3,-6%,-11%,4%,-10
Cn1c(=O)n(C)c2cc([N+](=O)[O-])c(N3CCN(C(=O)c4ccccc4)CC3)cc21,-1.0,-1.3%,1,22%,13%,?,29
CCOC(=O)c1c(NC(=O)CSc2nccn2C)sc(C(=O)NC)c1C,.,.,3,.,2%[15.4 µM],-1%,-22
